2A firefly – FMDV 2A StopGo reporter, firefly signal; HEK cells with a luciferase reporter of 2A StopGo recoding; Potency, µM (top dose mostly 57.5 µM), for the others: top-dose signal change, negative = less light; 0.23% of 120,000 active; active = well fitted falling curve with a large enough effect; inconclusive = small, poorly fitted or top-dose-only effect; inactive = no such curve, though single readings can be large or run the other way; note: nearly all actives have a fitted effect of over 60% in size; overnight with compound
2A Renilla – FMDV 2A StopGo reporter, Renilla signal. HEK cells with a luciferase reporter of 2A StopGo recoding. Potency, µM (top dose mostly 57.5 µM), for the others: at the highest dose signal change, negative = less light. 0.32% of 120,000 active. AID 1745857; active means well fitted falling curve with a large enough effect; inconclusive means small, poorly fitted or top-dose-only effect; inactive means no such curve, though single readings can be large or run the other way; note: nearly all actives have a fitted effect of over 55% in size; overnight with compound
An asterisk follows results filed as active; ? = inconclusive; & = joins results of further samples; [ ] = another dose, or the depositor's remark. % is set by controls: 0 for no effect and ±100 for the full control effect; potency is the fitted concentration of half-maximal effect. The list is partial; count on the stated rates, not on these rows.

Start of the data: the first 22 records, ahead of the listing:
SMILES	2A firefly	2A Renilla
COc1cccc(NC(=O)CSc2nccn2Cc2ccc3c(c2)OCO3)c1	29.9%	16.9%
Cc1ccc2[nH]c(C(=O)O)cc2c1	0.0%	0.0%
Cn1nc(C(=O)Nc2ccccc2C(=O)NC2CC2)c2ccccc2c1=O	8.7%	13.8%
Cc1ccc(/C=C/C(=O)OC(C)C(=O)c2ccc3c(c2)CCC3)cc1 (stereo not given)	14.4%	4.2%
CCC(CC)c1nc(C#N)c(NC(C)c2ccccc2)o1 (stereo not given)	20.9%	40.5%[activator]
O=C(NC1CC1)c1ccc(Cn2c(SCc3ccccc3F)nc3cccnc32)cc1	55.8%[activator]	19.7%
CCN1CCCC1CNC(=O)C(=O)Nc1ccc2cc[nH]c2c1 (stereo not given)	61.0%[activator]	0.7%
CCOC(=O)N1CCN(c2ncc3c(n2)CC(c2ccc(Cl)cc2)CC3=O)CC1 (stereo not given)	-1.3%&-8.3%	0.6%&-5.3%
O=c1[nH]c(=O)n(Cc2ccccc2)c2c1C(C(F)(F)F)(C(F)(F)F)N=C(c1cccs1)N2	20µM*	?
N#CC1=C(N)N2CCc3cc4c(cc3C2=CC12C(=O)Nc1cc3c(cc12)OCCO3)OCO4 (stereo not given)	-0.8%	-44.1%
COc1ccc(NC(=O)CCc2nc(C3=CCN(Cc4cccc(Cl)c4)CC3)no2)cc1OC	-27.0%	?
COC(=O)C1=C(N)N(c2cccc(C)c2)C2=C(C(=O)CCC2)C1c1ccc2c(c1)OCO2 (stereo not given)	3.4%	-4.8%
Cc1c(CCC(=O)N2CCCCC2)c(=O)oc2cc3occ(C(C)(C)C)c3cc12	-9.5%	-7.2%
CCOc1ccc(OCC)c(NC(=O)C2CCCN(S(=O)(=O)c3ccc(C)cc3)C2)c1 (stereo not given)	-21.3%	-13.2%
O=C(CSc1ccc2c(c1)OCCO2)c1c[nH]c2ccccc12	0.0%	-17.2%[1.06 µM]
CCCn1c(=O)c2ccc(C(=O)NCC(C)C)cc2n2c(SCc3ccc(F)cc3)nnc12	-6.0%	9.0%
Cc1ccc(Cn2ccnc2SCC(=O)NCc2ccccc2Cl)cc1	0.6%&-7.9%	9.2%&12.9%
Cc1cccc(NS(=O)(=O)c2c(C(=O)N3CCCC3)c(C)n(C)c2C)c1C	-1.8%	109.6%[activator]
CN(C(=O)CSc1nnc(-c2ccc([N+](=O)[O-])cc2)o1)c1ccccc1	8.7%	-5.8%
O=C(Nc1oc2ccc(Cl)cc2c(=O)c1-c1ccccc1)c1cccc([N+](=O)[O-])c1	33.9%[activator]	0.9%
Cc1ccc(NS(=O)(=O)c2c(C)nc3sc(C)cn3c2=O)c(C)c1	0.0%	-7.2%
O=C(NC1(c2ccccc2)CCC1)c1cccc(Cl)c1Cl	0.0%	31.2%

All compounds of this part, from the start:
SMILES	2A firefly	2A Renilla
COc1cccc(NC(=O)CSc2nccn2Cc2ccc3c(c2)OCO3)c1	29.9%	16.9%
Cc1ccc2[nH]c(C(=O)O)cc2c1	0.0%	0.0%
Cn1nc(C(=O)Nc2ccccc2C(=O)NC2CC2)c2ccccc2c1=O	8.7%	13.8%
Cc1ccc(/C=C/C(=O)OC(C)C(=O)c2ccc3c(c2)CCC3)cc1 (stereo not given)	14.4%	4.2%
CCC(CC)c1nc(C#N)c(NC(C)c2ccccc2)o1 (stereo not given)	20.9%	40.5%[activator]
O=C(NC1CC1)c1ccc(Cn2c(SCc3ccccc3F)nc3cccnc32)cc1	55.8%[activator]	19.7%
CCN1CCCC1CNC(=O)C(=O)Nc1ccc2cc[nH]c2c1 (stereo not given)	61.0%[activator]	0.7%
CCOC(=O)N1CCN(c2ncc3c(n2)CC(c2ccc(Cl)cc2)CC3=O)CC1 (stereo not given)	-1.3%&-8.3%	0.6%&-5.3%
O=c1[nH]c(=O)n(Cc2ccccc2)c2c1C(C(F)(F)F)(C(F)(F)F)N=C(c1cccs1)N2	20µM*	?
N#CC1=C(N)N2CCc3cc4c(cc3C2=CC12C(=O)Nc1cc3c(cc12)OCCO3)OCO4 (stereo not given)	-0.8%	-44.1%
COc1ccc(NC(=O)CCc2nc(C3=CCN(Cc4cccc(Cl)c4)CC3)no2)cc1OC	-27.0%	?
COC(=O)C1=C(N)N(c2cccc(C)c2)C2=C(C(=O)CCC2)C1c1ccc2c(c1)OCO2 (stereo not given)	3.4%	-4.8%
Cc1c(CCC(=O)N2CCCCC2)c(=O)oc2cc3occ(C(C)(C)C)c3cc12	-9.5%	-7.2%
CCOc1ccc(OCC)c(NC(=O)C2CCCN(S(=O)(=O)c3ccc(C)cc3)C2)c1 (stereo not given)	-21.3%	-13.2%
O=C(CSc1ccc2c(c1)OCCO2)c1c[nH]c2ccccc12	0.0%	-17.2%[1.06 µM]
CCCn1c(=O)c2ccc(C(=O)NCC(C)C)cc2n2c(SCc3ccc(F)cc3)nnc12	-6.0%	9.0%
Cc1ccc(Cn2ccnc2SCC(=O)NCc2ccccc2Cl)cc1	0.6%&-7.9%	9.2%&12.9%
Cc1cccc(NS(=O)(=O)c2c(C(=O)N3CCCC3)c(C)n(C)c2C)c1C	-1.8%	109.6%[activator]
CN(C(=O)CSc1nnc(-c2ccc([N+](=O)[O-])cc2)o1)c1ccccc1	8.7%	-5.8%
O=C(Nc1oc2ccc(Cl)cc2c(=O)c1-c1ccccc1)c1cccc([N+](=O)[O-])c1	33.9%[activator]	0.9%
Cc1ccc(NS(=O)(=O)c2c(C)nc3sc(C)cn3c2=O)c(C)c1	0.0%	-7.2%
O=C(NC1(c2ccccc2)CCC1)c1cccc(Cl)c1Cl	0.0%	31.2%
COc1ccc(NC(=O)CN(C)C(=O)c2ccc(-c3cc(Cl)ccc3Cl)o2)cc1	-6.9%	1.6%
CC(C)CCNC(=O)CSc1nc2ccsc2c(=O)n1Cc1ccccc1	18.3%	17.4%
Nc1ccccc1	-4.2%[11.5 µM]	-2.0%
Cc1nc(NCCC(C)C)sc1C(=O)NCc1ccncc1	38.6%[activator]	22.8%
CC(Cc1c[nH]c2ccccc12)NC(=O)CCNc1nc(Cl)nc2nc[nH]c12 (stereo not given)	7.3%	5.2%
Cn1nc(C(=O)Nc2nc3c(s2)CCC3)c2ccccc2c1=O	164.5%[activator]	4.6%
CCOC(=O)c1c(C)sc(-c2c(-c3ccc4c(c3)OCCO4)[nH]c3c2c(=O)[nH]c(=O)n3C)c1O	-1.6%	46.1%[activator]
Cc1cc(C)n(-c2nc3c(c(=O)n(CC(C)C)c(=O)n3C)n2CCc2ccccc2)n1	5.2%	-7.4%
CSc1ccc(CN(C)CC(=O)N(C)c2ccccc2C(=O)NCc2ccco2)cc1	-12.7%	0.0%
CC(Cc1nc2ccccc2s1)(C(=O)O)c1ccccc1 (stereo not given)	2.5%	-4.8%
CC(C)=CC(=O)NCCSC1CCCC1	194.3%[activator]	2.4%
Cc1ccc(OCC(C)CN2CCC(C(O)(c3ccccc3)c3ccccc3)CC2)cc1 (stereo not given)	-10.5%	-6.2%
COCCCNC(=O)C1CC(=O)N(CCc2c[nH]c3ccc(C)cc23)C1 (stereo not given)	4.1%	-2.1%
COC(=O)c1cc(C)nc2c1c(=O)n(CC(=O)NC1CCCCC1)c(=O)n2-c1ccccc1OC	-4.9%	-10.4%
Cc1ccc(Cl)cc1NC(=S)NCCSc1ccc(Cl)cc1	?	48.0%[activator]
CSc1cccc(NC(=O)c2cc(Cl)ccc2F)c1	0.0%	0.0%
CCCOc1ccc(NC(=O)c2cccc3ccccc23)c2cccnc12	5.6%	-9.2%
CC(C)c1ccc(NC(=O)CN2C(=O)COc3ccc(S(=O)(=O)N4CCCCCC4)cc32)cc1	-11.8%	-3.2%
COc1ccc(OC)c(-c2nc3c(c(=O)[nH]2)Cc2ccccc2O3)c1	17.4%	6.2%
CC1=C(C)C(c2cn(C)c3ccccc23)N(CCc2ccccc2)C1=O (stereo not given)	-6.8%	103.1%[activator]
COc1cc(N2C(=O)CSC23C(=O)N(Cc2ccc(C)cc2)c2ccccc23)cc(OC)c1OC (stereo not given)	8.6%	5.5%
CCOc1ccc(CCNC(=O)c2nnc(Cc3cc(OC)c(OC)c(OC)c3)o2)cc1OCC	-13.1%	-7.3%
Cc1ccc(NC(=O)C(c2ccccc2)n2cnc3c2c(=O)n(C)c(=O)n3C)cc1 (stereo not given)	6.9%	20.2%
CC(=O)c1ccccc1OCCN1CCN(C2CCS(=O)(=O)C2)CC1 (stereo not given)	-0.8%	1.8%
CCCCCCSC1=C(C#N)C(c2ccccc2C)CC(=O)N1 (stereo not given)	3.0%	-4.3%
O=C(CCc1c[nH]c2ccccc12)N(CC(F)(F)F)C1CC1	9.7%	4.0%
O=C(O)c1ccc(-c2ccccc2)s1	0.0%	0.0%
Cc1cc(OC[C@@H](O)CN2CCC(C(O)(c3ccccc3)c3ccccc3)CC2)ccc1Br	10.3%	6.0%
CSc1nc(-c2cccs2)cc(C(F)(F)F)n1	3.3%	-1.5%
COc1ccc(NC(=O)CSc2nc3nc(C)cc(C)n3n2)cc1OC	-12.0%	7.1%
Cc1ccc(Nc2nc(CN3CCN(S(=O)(=O)c4cc(C)ccc4C)CC3)cs2)cc1	?	8.91µM*
COc1ccc(OC(=O)N(CC(=O)O)Cc2ccc(OCCc3nc(-c4ccccc4)oc3C)cc2)cc1	-11.3%[11.5 µM]	-8.9%
COc1ccc(NC(=O)C2CCN(c3nc(-c4ccc(OC)c(OC)c4)no3)CC2)cc1Cl	-13.5%	-1.7%
Cc1c(Cl)cccc1NC(=O)c1ccc2nc(C(C)C)oc2c1	2.4%	-9.7%
Cc1cccc(C(=O)OC(C(N)=O)c2ccccc2)c1 (stereo not given)	9.4%	2.1%
Cc1nc(N2CCCC2)c2c(C(=O)N3CCN(c4cc(Cl)ccc4C)CC3)c(C)oc2n1	?	-31.3%
CC(=O)c1cccc(NC(=O)c2ccc(Cn3cnc4ccccc4c3=O)cc2)c1	27.8%	14.9%
COc1ccc(OCCn2c(NC(=O)c3ccco3)nc3ccccc32)cc1	16.4%	4.3%

Following part
SMILES	2A firefly	2A Renilla
CN(C)c1ccc(CNS(=O)(=O)c2ccc(-c3cc(C(F)(F)F)on3)s2)cc1	-15.1%	-14.7%
O=c1[nH]c2ccc(NCc3ccc(-c4cccc(Cl)c4)o3)cc2[nH]1	17.0%	-2.3%
Cc1cc(NC(=O)COc2c(CO)cc(F)cc2CO)ccc1Br	136.8%[activator]	18.0%
CN(Cc1cc2ccccc2[nH]c1=O)C(=O)c1cccc(Cl)c1	-2.3%	1.2%
Cc1ccc(NC(=O)CSc2nc3cc4c(cc3c(=O)n2Cc2ccco2)OCO4)c(C)c1	4.7%	60.1%[activator]
COc1cccc(CN(C)C(=O)C23CC4CC(CC(C4)C2)C3)c1OC	-4.4%	22.6%
O=C(O)C1CCN(C(=O)Cn2ccc3c(Br)cccc32)CC1	-2.4%	-6.1%
CCc1cc(SC#N)cc(CC)c1N	-7.5%	1.4%
COc1ccc(NC(=O)Cn2ccc3ccc(Cl)cc32)cc1	43.6%[activator]	110.0%[activator]
CSC1=NC2(CCN(C(=O)NC3CCCCC3)CC2)N=C1c1ccc(C)cc1	-12.5%	-3.7%
CCN(Cc1ccccc1)C(=O)c1nn(-c2ccc(OC)cc2)c(=O)c2c1c1ccccc1n2C	15.8%	45.9%[activator]
Cc1cc(C)nc(NS(=O)(=O)c2ccc(NC(=O)c3cc(=O)c4ccc(C)c(C)c4o3)cc2)n1	-11.2%	23.1%
Cc1ccc2c(=O)cc(C(=O)N(Cc3ccccc3)c3ccccn3)oc2c1C	-1.7%	39.8%[activator]
O=c1cc(Cn2nnc(-c3cccc(F)c3)n2)nc2sccn12	-10.0%	-13.5%
CC(COc1ccc(S(C)(=O)=O)cc1)CN1CCC(C(O)(c2ccccc2)c2ccccc2)CC1 (stereo not given)	-21.0%	-18.0%
CCOC(=O)N1CCC(=C2c3ccc(Cl)cc3CCc3cccnc32)CC1	2.6%[11.5 µM]	1.6%
Cc1oc2ncn(C)c(=O)c2c1C(=O)NCCCN(Cc1ccccc1)C(C)C	-3.9%	-4.7%
O=C(Nc1cccc(Cl)c1)N1CCN(Cc2nc(-c3cccc(C(F)(F)F)c3)no2)CC1	-5.2%	-12.5%
COc1cc(OC)c(NC(=O)CCn2cnc3onc(-c4ccc(F)cc4)c3c2=O)cc1Cl	0.4%	-1.0%
O=C(NCC1CCN(Cc2cccc(Cl)c2)CC1)Nc1ccc(F)c(Cl)c1	19.2%	?
CCOC(=O)c1ccc(Nc2c(-c3ccc(OC)cc3)nc3nc[nH]n23)cc1	-17.7%	-6.8%
NC1=NC(=O)C(c2ccccc2)O1 (stereo not given)	-6.0%[11.5 µM]	-4.3%
Cc1oc(-c2cccs2)nc1C(=O)NC(C)COCC(F)(F)F (stereo not given)	-6.9%	-4.3%
COc1ccccc1NC(=O)c1cc(=O)c2c(C)cc(C)cc2o1	0.5%	-6.6%
COc1ccc(NC(=O)CCc2ncc(-c3ccccc3)o2)cc1	41.2%[activator]	-5.7%
O=C(CCc1c[nH]c2ccccc12)N1CCN(C(=O)c2ccco2)CC1	-2.2%	-3.2%
CCc1ccc(CNC(=O)C2CCN(c3nn4cc(-c5ccc(OC)cc5)nc4s3)CC2)cc1	35.5%	-14.3%
COc1ccc(S(=O)(=O)n2nc(-c3ccco3)nc2NCc2ccc(C(C)C)cc2)cc1	0.0%&0.0%	56.0%&50.6%[activator]
CC1CCN(CC2CCCN(c3ncccc3C#N)C2)CC1 (stereo not given)	-1.4%	-16.3%
